GIRK2 act – opens human GIRK2 potassium channels; P48051; HEK293-GIRK2 thallium flux, Thallos fluorescence; calls only for hits at 25 µM; 63,000 compounds, 0.05% hits;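 active = among the strongest 0.2% of first-round signals and kept after retests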;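 note: first round at about 10 µM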
Target sequence (P48051 whole entry, looked up): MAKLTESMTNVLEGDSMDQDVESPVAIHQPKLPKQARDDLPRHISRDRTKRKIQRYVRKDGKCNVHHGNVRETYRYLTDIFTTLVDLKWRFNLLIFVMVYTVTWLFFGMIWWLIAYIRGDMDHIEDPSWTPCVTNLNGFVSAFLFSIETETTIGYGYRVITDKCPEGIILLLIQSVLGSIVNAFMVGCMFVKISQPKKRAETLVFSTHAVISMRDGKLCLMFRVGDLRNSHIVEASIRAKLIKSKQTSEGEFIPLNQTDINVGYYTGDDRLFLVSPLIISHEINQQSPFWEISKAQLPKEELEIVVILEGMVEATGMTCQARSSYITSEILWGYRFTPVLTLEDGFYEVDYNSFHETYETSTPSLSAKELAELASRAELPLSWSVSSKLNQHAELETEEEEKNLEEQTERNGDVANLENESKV
Calls only; i = inactive.

SMILES	GIRK2 act
COc1ccc(NC(=O)CSC2=Nc3ccccc3C3=NC(C)C(=O)N23)cc1Cl (configuration not stated)	i
COc1ccc(/C=C/C(=O)c2cccs2)c(OC)c1	i
COc1cccc(CC(=O)NC2CCN(C(=O)c3cn(-c4ccc(C)c(C)c4)nn3)CC2)c1	i
O=C(COc1ccc(Cl)cc1)NCCOc1ccc2c(c1)OCO2	i
COc1ccccc1OCC#CCNC(=O)c1cccc(Cl)c1	i
C=C(C)CN1CCN(c2cc(C)nc3cc(-c4ccc(OC)c(OC)c4)nn23)CC1	i
COc1ccc(-c2cc3ccc(OCCN4CCN(CCO)CC4)cc3oc2=O)cc1OC	i
CCOc1ccc2cccc(NC(=O)c3c(F)cccc3F)c2n1	i
COc1ccc(-c2csc3c(=O)n(CC(=O)Nc4cc(OC)cc(OC)c4)cnc23)cc1	i
O=C(NCCC(O)c1ccccc1)C(=O)NC1CCCC1 (configuration not stated)	i
Cc1noc(C)c1S(=O)(=O)NCCn1nc(-n2ccnc2)ccc1=O	i
Cc1nc2n(c(=O)c1CCN1CCC(c3noc4ccc(F)cc34)CC1)CCCC2	i
CCC(C)NS(=O)(=O)c1cccc2nsnc12 (configuration not stated)	i
CCOC(=O)c1ccnc(C(=O)OCC)c1	i
CCCc1c(C(=O)NC(C)C)nnn1-c1ccc2noc(-c3ccccc3)c2c1	i
O=S(=O)(Cc1ccc(C(F)(F)F)cc1)N(Cc1ccccn1)Cc1ccco1	i
COC(=O)c1ccc2c(=O)n(CCCC(=O)N3CCN(c4cc(C)ccc4C)CC3)c(=S)[nH]c2c1	i
COc1ccc2c(c1)c(CC(=O)N1CCCCC1)c(C)n2C(=O)c1ccc(Cl)cc1	i
CC(C)CC(=O)Nc1ccc(-n2cnc(C(=O)N3CCSCC3)c2)nc1	i
COc1ccccc1NC(=O)Cn1ccn(-c2ccccc2)c(=O)c1=O	i

Reprinted at random: 5 entries already listed.
SMILES	GIRK2 act
COc1ccccc1NC(=O)Cn1ccn(-c2ccccc2)c(=O)c1=O	i
COc1ccc2c(c1)c(CC(=O)N1CCCCC1)c(C)n2C(=O)c1ccc(Cl)cc1	i
CCOC(=O)c1ccnc(C(=O)OCC)c1	i
Cc1nc2n(c(=O)c1CCN1CCC(c3noc4ccc(F)cc34)CC1)CCCC2	i
COc1ccc(-c2csc3c(=O)n(CC(=O)Nc4cc(OC)cc(OC)c4)cnc23)cc1	i

(list continues)
SMILES	GIRK2 act
Cc1ccc(CNc2ncc3c(=O)n(Cc4ccccc4)c(=O)[nH]c3n2)o1	i
COc1ccc(Nc2nc(-c3nnn(-c4ccc(F)cc4)c3C)ns2)cc1	i
COc1ccccc1NC(=O)C(=O)NCC1(CO)CC1	i
CC(C)c1ccc2oc3nc(N)c(C(=O)O)cc3c(=O)c2c1	i
CC(=O)N1CCc2c(sc(NC(=O)c3ccc(N(C)C)cc3)c2-c2nc3ccccc3s2)C1	i
CCCCCn1c(=O)c2c(nc3n2CC(C)=NN3CCCO)n(C)c1=O	i
COc1ccc(NC(=O)CSc2ncnc3nc(N4CCc5ccccc5C4)sc23)cc1Cl	i
CCNc1oc(-c2ccc(S(=O)(=O)N3CCOCC3)cc2)nc1C#N	i
c1cc2c(cc1-c1ccc(SCc3nc(-c4ccc5c(c4)OCO5)no3)nn1)OCO2	i
O=C(CCc1ccccc1)NCCCn1cccc1	i
O=C(NCCC1=CCCCC1)C(=O)NCC1CCN(C(=O)c2ccoc2)CC1	i
COc1ccc(F)cc1S(=O)(=O)NCCCn1ccnc1	i
O=S(=O)(c1ccc(Cl)c(C(F)(F)F)c1)N(CC(F)(F)F)c1ccccc1	i
COCCNC(=O)NCCn1nc(C2CC2)n(-c2ccccc2)c1=O	i
O=C(Cc1cccs1)Nc1ccc(-n2nnn(CC(=O)N3CCOCC3)c2=O)cc1	i
C=C(C)CN1CCN(S(=O)(=O)c2ccc(C)c(N(C)S(=O)(=O)c3ccc(C)cc3)c2C)CC1	i
COc1ccccc1C(=O)N1c2ccccc2CC1C(N)=O (configuration not stated)	i
COCCn1nnn(-c2ccc(NC(=O)c3cnccn3)cc2)c1=O	i
CN(c1ccsc1C(=O)Nc1cccc(C#N)c1)S(=O)(=O)c1ccc(Cl)cc1	i
Cc1nc(NCCNC(=O)Nc2cccc(F)c2C)cc(-n2cccc2)n1	i
COc1cccc(CSc2nccn(-c3ccc(Cl)cc3)c2=O)c1	i
CCC(=O)Nc1c(-c2ccc(OC)cc2)c(=O)c2ccccc2n1CC	i
CCCCOc1ccc(NC(=O)NCC2CCN(S(=O)(=O)c3cccnc3)CC2)cc1	i
COc1ccc(OCc2noc(CNC(=O)/C=C/c3ccco3)n2)cc1	i
O=C(Nc1ccc2c(c1)C(=O)N1CCCCC1CCO2)c1ccc(Cl)s1 (configuration not stated)	i
Cc1ccc(-n2cc(C(=O)N3CCN(c4ccccc4F)CC3)nn2)cc1C	i
CCN(CC)c1c([N+](=O)[O-])c(=O)n(-c2ccccc2)c2ccccc12	i
CCCCc1ccc(NS(=O)(=O)c2cn(C)nc2C)cc1	i
O=C(CCSc1ccccc1)N1CCC2(CC1)OCCCO2	i
O=C(c1cccs1)c1ccc(CNC(=O)c2ccccc2Cl)s1	i
COc1ccc(NC(=O)Cn2cnc3c(sc4nc(C)cc(C)c43)c2=O)cc1Cl	i
C/C=C/C(=O)N1CCC(CSc2nc(C)cs2)CC1	i
C/C=C/c1ccc(OCC(O)CNC(C)(C)C)c(OC)c1 (configuration not stated)	i
CC(C)Oc1ccc(-c2noc(CN3N=NC4C(=O)N(c5ccc(F)cc5)C(=O)C43)n2)cc1 (configuration not stated)	i
COCCn1c(=O)c2c(nc3n(-c4ccc(C)cc4C)c(C)cn23)n(C)c1=O	i
COc1ccc(CNC(=O)CSc2nccn3nc(-c4ccc(OC)cc4)cc23)cc1	i
O=c1ccc(-c2cccc(Br)c2)nn1Cc1ccccc1	i
COC(=O)c1ccc(NC(=O)CN2CCc3nc(NC(=O)c4ccoc4)sc3C2)cc1	i
CCc1nc(N)n(CC(=O)NCc2ccc3c(c2)OCO3)c(=O)c1C	i
CN(C)c1cccc(C(=O)NCC2(c3ccccc3)CCOCC2)c1	i
C=C1C(=O)O[C@@H]2C3C(=C(C)[C@@H](O)[C@@H](OC(=O)/C(=C/C)COC(C)=O)[C@@H]12)C(=O)[C@H]1O[C@@]31C (some centres not stated)	i
O=C(Nc1ccc2c(c1)OCO2)c1ccc(Cl)c(S(=O)(=O)N2CCCC2)c1	i
CS(=O)(=O)c1ccc2nc(NC(=O)c3csc(Nc4cccnc4)n3)sc2c1	i
COCCN(Cc1ccoc1)C(=O)C(C)Oc1ccccc1 (configuration not stated)	i
O=C(Nc1ccccc1-c1ccc(=O)[nH]n1)C1c2ccccc2Oc2ccccc21	i
CC1(C)O[C@H]2CC(=O)OC[C@@]23C1=C(O)C(=O)[C@]1(C)C3CC[C@@]2(C)[C@H](c3ccoc3)OC(=O)[C@H]3O[C@]321 (some centres not stated)	i
CCOC(=O)C1=C(C)NC(=O)NC1c1cccc([N+](=O)[O-])c1 (configuration not stated)	i
COCCCN1COc2ccc3c(c2C1)O/C(=C\c1ccc(OC)cc1)C3=O	i
COc1ccccc1Oc1c(-c2ccc(OCC(=O)NN)cc2O)n[nH]c1C	i
O=S(=O)(Cc1cccc(F)c1)N1CCC2(CC1)OCCS2	i
COc1cc(NC(=O)C2CCN(c3c(C#N)cnc4ccc(F)cc34)CC2)cc(OC)c1	i
CCSc1nn(CC(=O)Nc2ccccc2Cl)c(N)c1S(=O)(=O)c1ccc(OC)cc1	i
COc1cccc(NC(=O)CCS(=O)(=O)Cc2ccccc2)c1	i
Cc1nc(-c2ccccc2)sc1-c1cc(=O)[nH]c(SCC(=O)Nc2ccc3c(c2)OCO3)n1	i
CCc1ccc(S(=O)(=O)Nc2cnc(N3CCN(c4ccccc4)CC3)nc2)cc1	i
CCOC(=O)c1ccc(NC(=O)c2ccc3snnc3c2)cc1	i
Cn1nc(CNC(=O)c2ccc(Cl)s2)cc1-c1ccncc1	i
COc1ccc(Oc2c(C(F)(F)F)oc3c4c(ccc3c2=O)OCN(C2CC2)C4)cc1	i
COCCN(Cc1ccoc1)C(=O)c1cn(C)nc1OC	i
CCn1c(SCC(=O)Nc2ccc(F)cc2)nc2c3cc(OC)ccc3n(C)c2c1=O	i
(cont.)
SMILES	GIRK2 act
Cc1cccc(N2CCN(C(=O)c3snc4c(=O)n(C)c(=O)[nH]c34)CC2)c1C	i
O=C(c1ccccc1Br)N1CCC(Oc2nc3c(F)cccc3s2)CC1	i
COc1ccc(S(=O)(=O)NCCn2nc(-n3nc(C)cc3C)ccc2=O)cc1F	i
CC(O)(CNC(=O)c1ccccc1Cl)c1cccs1 (configuration not stated)	i
CCOc1cccc(CNC(=O)C2CCN(c3ncccc3-c3nc(-c4ccc(C)cc4)no3)CC2)c1	i
CCC(=O)Nc1ccc(S(=O)(=O)NCCCN2CCN(c3ccccc3)CC2)c(C)c1	i
COc1cc(OC)cc(C(=O)Nc2ccc3c(c2)CCC(=O)N3C)c1	i
CSc1cccc(NC(=O)Cn2c3ccccc3c3ncn(Cc4nc(C)no4)c(=O)c32)c1	i
Cn1c(=O)c([N+](=O)[O-])c(NCCCn2ccnc2)c2ccccc21	i
O=C(Nc1ccc2ccccc2c1)N1CCN(c2cc(-n3cccc3)ncn2)CC1	i
C=CCOc1ccccc1CN1C(=O)C2(SC(NC(C)=O)=NN2C(C)=O)c2ccccc21 (configuration not stated)	i
COC(=O)c1ccccc1NC(=O)Cn1ncn2nc(-c3ccccc3)cc2c1=O	i
O=C(NCC1CCN(S(=O)(=O)c2cccnc2)CC1)c1ccc(Cl)s1	i
C#CC(C)(CC)OCC(O)CN1CCN(c2cccc(C(F)(F)F)c2)CC1 (configuration not stated)	i
CN(C(=O)c1ccc(-c2ccccc2[N+](=O)[O-])o1)C1CCS(=O)(=O)C1 (configuration not stated)	i
CS(=O)(=O)c1ccccc1NC(=O)c1ccccc1	i
O=C(C1CCN(c2ncnc3c2sc2ncccc23)CC1)N1CCN(c2ccc(Cl)cc2)CC1	i
COc1cc(Nc2nc(-c3nnn(-c4cccc(F)c4)c3C)ns2)cc(OC)c1	i
C=CCN1C(=O)c2oc3ccccc3c(=O)c2C1c1cc(OC)c(OC)c(OC)c1 (configuration not stated)	i
O=C(CN1CCN(CC(O)c2ccco2)CC1)Nc1nccs1 (configuration not stated)	i
CSc1ccccc1NC(=O)CN1CCN(c2ccc(F)c(F)c2)C1=O	i
NC(=O)CSc1ncc(-c2ccc(Br)cc2)n1-c1ccccc1	i
CCOc1cc(C)c(Cl)cc1S(=O)(=O)NC1CC(C)(C)NC(C)(C)C1	i
COc1ccc2oc(=O)c(C(=O)Nc3cc(Cl)ccc3C)cc2c1	i
CCS(=O)(=O)c1ccc2c(c1)N(Cc1nc(-c3ccc(C)c(C)c3)no1)C(=O)CO2	i
COc1cccc2cc(C(=O)OCc3ccccc3)c(=O)oc12	i
O=C(NCCCS(=O)(=O)N1CCN(c2ccccc2F)CC1)c1cccc(Cl)c1	i
O=C(Nc1nc2c(s1)COCC2)c1ccc(Cn2ccnc2)cc1	i
CNC(=O)/C(C#N)=c1\s/c(=C/c2cccnc2)c(=O)n1-c1ccccc1	i
CS(=O)(=O)N1CCCC(c2nnc(-c3ccc4c(c3)OCO4)o2)C1 (configuration not stated)	i
O=C(c1cc2ccccc2o1)N1CCN(c2ncnc3c2nnn3-c2ccc(Cl)cc2)CC1	i
CC(C)[N+](C)(CCOC(=O)C1c2ccccc2Oc2ccccc21)C(C)C	i
O=S(=O)(c1ccc(Cl)c2ccccc12)N1CCCCC1	i
Cc1ccc(Nc2nc(-c3ccc4c(c3)OCO4)cs2)nc1	i
CCCCC[C@H](O)/C=C/[C@@H]1[C@@H](C/C=C\CCCC(=O)O)[C@@H](O)C[C@@H]1O	i
Cc1ccc2c(Nc3ccc4c(c3)OCO4)c(C(=O)N3CCC(C)CC3)cnc2n1	i
COCC(C)NC(=O)c1cc2c(-c3ccccc3)nn(-c3ccccc3)c2s1 (configuration not stated)	i
COc1nn(C)cc1C(=O)Nc1nnc(SCC(=O)NCC2CCCO2)s1 (configuration not stated)	i
O=C(Cn1c(=O)oc2ccccc21)N(CCc1cccs1)C1CC1	i
CCn1c(=O)c(C(=O)Nc2ccc3c(c2)OCCO3)c(O)c2sccc21	i
CCOc1ccc(-n2c(-c3ccccc3)cn3c4c(=O)[nH]c(=O)n(C)c4nc23)cc1	i
Cc1ccc(NC(=O)C(C)NC(=O)CC23CC4CC(CC(C4)C2)C3)cc1 (configuration not stated)	i
CCSc1nnc(NC(=O)CNC(=O)c2ccc(=O)[nH]c2)s1	i
COCCn1c(=O)c2c(nc3n(-c4ccc(F)cc4)c(-c4ccccc4)cn23)n(C)c1=O	i
COCCCN1C(=O)c2ccc(C(=O)OCC(=O)c3ccc(C)cc3)cc2C1=O	i
CN(CC(=O)N1CCN(c2ccccn2)CC1)C(=O)c1c[nH]c2ccccc12	i
COc1cccc(C(=O)OC2CN(c3nc4c(C)ccc(C)c4s3)C2)c1OC	i
COC1(CNC(=O)c2ccc(Br)o2)CCSC1 (configuration not stated)	i
CCCCn1c(SCC(=O)Nc2cc(C)ccc2OC)nc2c(sc3ncccc32)c1=O	i
CCCS(=O)(=O)N1CCc2ccc(NC(=O)c3cc(-c4cc(OC)ccc4OC)nn3C)cc2C1	i

Entries listed so far with an NH in an aromatic ring:
SMILES	GIRK2 act
COC(=O)c1ccc2c(=O)n(CCCC(=O)N3CCN(c4cc(C)ccc4C)CC3)c(=S)[nH]c2c1	i
Cc1ccc(CNc2ncc3c(=O)n(Cc4ccccc4)c(=O)[nH]c3n2)o1	i
O=C(Nc1ccccc1-c1ccc(=O)[nH]n1)C1c2ccccc2Oc2ccccc21	i
COc1ccccc1Oc1c(-c2ccc(OCC(=O)NN)cc2O)n[nH]c1C	i
Cc1nc(-c2ccccc2)sc1-c1cc(=O)[nH]c(SCC(=O)Nc2ccc3c(c2)OCO3)n1	i
Cc1cccc(N2CCN(C(=O)c3snc4c(=O)n(C)c(=O)[nH]c34)CC2)c1C	i
CCOc1ccc(-n2c(-c3ccccc3)cn3c4c(=O)[nH]c(=O)n(C)c4nc23)cc1	i
CCSc1nnc(NC(=O)CNC(=O)c2ccc(=O)[nH]c2)s1	i
CN(CC(=O)N1CCN(c2ccccn2)CC1)C(=O)c1c[nH]c2ccccc12	i

Compound activity from PubChem.

This is a subset; the hit share may differ from the screen's.
